Screening data (PubChem)
T cruzi inh: inhibitors of intracellular T. cruzi growth, primary screen, luminescence, NIH3T3 host cells. T. cruzi beta-gal in NIH3T3, 90 h. inhibition, % (concentration not given with the values). AID 1885, 2009. 300,000 compounds, 1.4% hits;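 active means mean inhibition across valid replicates above about 55%, limit read from the data; inconclusive means mean below that limit but half or more replicates reach it; inactive means mean below it, under half of replicates reach it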;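 further: signal also drops with host cell toxicity which is not excluded here; 0% = plate median of DMSO wells and 100% = zero luminescence signal; higher percent means less beta-gal luminescence so fewer parasites; stock transfer was 50 nL into about 50 µL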
RanGTP-Impb inh: inhibitors of RanGTP-importin-beta interaction, primary screen, biochemical, FRET, CFP-Ran, YFP-importin-beta, homogeneous; Ran GTPase (GTP-bound) - importin-beta complex; cell-free CFP-Ran/YFP-importin-beta FRET ratio; inhibition, % (no concentration beside the values); 300,000 compounds, 1.1% hits;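 active means most replicates above 15%; inconclusive means exactly half above 15%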;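 further: 0% = DMSO wells and 100% = Ran loaded with GDP instead of GTP; wells of about 40 µL received 100 nL stock; the first replicate is given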
Beta cell apopt: inhibitors of cytokine-induced beta cell apoptosis, primary screen, luminescence | INS-1E cytokine-induced death, ATP luminescence, 48 h; percent of positive-control rescue, neutral wells zero | protection from apoptosis, % (concentration not given with the values) | 300,000 compounds, 0.8% hits;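 active means all replicates at 75% or more, or half of them and the mean; inconclusive means half reach 75% but not the mean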;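 further: 0% = cytokine-treated negative control wells and 100% = positive control rescue; higher means more ATP so stronger rescue from cytokine killing; wells of about 40 µL received 100 nL stock; the first replicate is given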
Calb FLC: C. albicans growth inhibition with fluconazole, primary screen, CaCi-2 strain, Alamar Blue fluorescence | growth inhibition, % (no concentration beside the values) | 300,000 compounds, 0.57% hits | AID 1979, 2009 | C. albicans CaCi-2 (fluconazole-resistant clinical isolate) + fluconazole, 48 h;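 active means most replicates above 75%; inconclusive means exactly half above 75%; inactive means most below 75%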;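 further: all wells also contain fluconazole at 8 µg/ml as a sub-toxic cotreatment; 0% = median of DMSO wells and 100% = median of geldanamycin control wells; wells of about 8 µL received 7.5 nL stock; the first replicate is given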
ALR H2O2 inh: inhibitors of human ALR sulfhydryl oxidase, primary screen, biochemical, H2O2 detection, HRP-luminol luminescence, single point. 290,000 compounds, 3.8% hits. purified ALR, DTT oxidation. inhibition, % (no concentration beside the values). FAD-linked sulfhydryl oxidase ALR (Homo sapiens), P55789;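 active means mean and each replicate at 75% or more; inconclusive means only one of the two met; inactive means neither met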;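 further: stock transfer was 7.5 nL into about 7.5 µL; 0% = neutral wells and 100% = wells with inactivated enzyme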
Target sequence (P55789 whole entry, looked up): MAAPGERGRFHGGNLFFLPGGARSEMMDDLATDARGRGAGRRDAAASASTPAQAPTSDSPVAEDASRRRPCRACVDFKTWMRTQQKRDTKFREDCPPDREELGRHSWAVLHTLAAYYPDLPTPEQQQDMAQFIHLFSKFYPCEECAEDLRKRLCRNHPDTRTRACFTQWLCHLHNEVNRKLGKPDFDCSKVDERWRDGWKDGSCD
Numbers without * were called inactive; ? = inconclusive; . = not tested or not shown. A portion of the library; rates above refer to the full screens.

cpd	smiles	T cruzi inh	RanGTP-Impb inh	Beta cell apopt
1	NC(=O)c1ccc[n+]([C@H]2O[C@@H](COP(=O)([O-])OP(=O)(O)OC[C@H]3O[C@@H](n4cnc5c(N)ncnc54)[C@H](O)[C@@H]3O)[C@H](O)[C@@H]2O)c1	.	.	0
2	CN1CCN(c2ccccc2NC(=O)c2ccc(OCc3ccccc3)cc2)CC1	.	.	1
3	Nc1ncnc2c1ncn2[C@@H]1O[C@H](CNCc2cccn2-c2nccs2)[C@@H](O)[C@H]1O	.	.	-2
4	C(=Nc1ccc(Nc2ccccc2)cc1)c1ccc2ccccc2c1	.	.	1
5	CC1(C)C(=O)CC[C@@]2(C)[C@H]1CC[C@@]1(C)CC3=C(CC[C@@H]12)[C@@]1(C)CCC(=O)C(C)(C)[C@@H]1CC3	.	.	5
6	COc1ccccc1NS(=O)(=O)c1cc(NC(=O)c2ccc(Cl)nc2)ccc1N1CCCC1	.	.	28
7	CN1CCN(CC(=O)O)CC1	.	.	2
8	CCCCCCCNC(=O)C1(CC2CC(c3cccc(Br)c3)=NO2)CCN(C(=O)Cc2ccc(F)cc2)CC1 (configuration not stated)	.	.	3
9	Nc1ncnc2c1ncn2[C@@H]1O[C@H](CNCc2ccccc2)[C@@H](O)[C@H]1O	.	.	-6
10	C=CCn1c(SCC(=O)c2ccccc2)nnc1-c1ccc2c(c1)OCO2	.	.	-4
11	COCCN1C(=O)N(c2cccc(C)c2)C(=O)C1CC(=O)Nc1ccc(F)cc1 (configuration not stated)	.	.	-3
12	COc1cc2c(cc1NC(=O)c1cncc(Br)c1)oc1ccccc12	.	.	6
13	CNC(=O)c1c(I)c(C(=O)NCC(=O)Nc2c(I)c(C(=O)O)c(I)c(C(=O)NCCO)c2I)c(I)c(N(C)C(C)=O)c1I	.	.	-3
14	CC(=O)Nc1sc2c(c1-c1nc3ccccc3s1)CCN(C(C)C)C2	.	.	100*
15	O=C(OC1CCc2ccccc2C1=O)c1ccccc1O (configuration not stated)	.	.	-13

cpd	Calb FLC	ALR H2O2 inh
1	.	.
2	.	.
3	.	.
4	.	.
5	.	.
6	.	.
7	.	.
8	.	.
9	.	.
10	.	.
11	.	.
12	.	.
13	.	.
14	.	.
15	.	.

12 compounds from above, ordered by count of non-hydrogen atoms, descending.
cpd	smiles	T cruzi inh	RanGTP-Impb inh	Beta cell apopt
1	NC(=O)c1ccc[n+]([C@H]2O[C@@H](COP(=O)([O-])OP(=O)(O)OC[C@H]3O[C@@H](n4cnc5c(N)ncnc54)[C@H](O)[C@@H]3O)[C@H](O)[C@@H]2O)c1	.	.	0
13	CNC(=O)c1c(I)c(C(=O)NCC(=O)Nc2c(I)c(C(=O)O)c(I)c(C(=O)NCCO)c2I)c(I)c(N(C)C(C)=O)c1I	.	.	-3
8	CCCCCCCNC(=O)C1(CC2CC(c3cccc(Br)c3)=NO2)CCN(C(=O)Cc2ccc(F)cc2)CC1 (configuration not stated)	.	.	3
6	COc1ccccc1NS(=O)(=O)c1cc(NC(=O)c2ccc(Cl)nc2)ccc1N1CCCC1	.	.	28
5	CC1(C)C(=O)CC[C@@]2(C)[C@H]1CC[C@@]1(C)CC3=C(CC[C@@H]12)[C@@]1(C)CCC(=O)C(C)(C)[C@@H]1CC3	.	.	5
3	Nc1ncnc2c1ncn2[C@@H]1O[C@H](CNCc2cccn2-c2nccs2)[C@@H](O)[C@H]1O	.	.	-2
11	COCCN1C(=O)N(c2cccc(C)c2)C(=O)C1CC(=O)Nc1ccc(F)cc1 (configuration not stated)	.	.	-3
10	C=CCn1c(SCC(=O)c2ccccc2)nnc1-c1ccc2c(c1)OCO2	.	.	-4
9	Nc1ncnc2c1ncn2[C@@H]1O[C@H](CNCc2ccccc2)[C@@H](O)[C@H]1O	.	.	-6
12	COc1cc2c(cc1NC(=O)c1cncc(Br)c1)oc1ccccc12	.	.	6
15	O=C(OC1CCc2ccccc2C1=O)c1ccccc1O (configuration not stated)	.	.	-13
7	CN1CCN(CC(=O)O)CC1	.	.	2

cpd	Calb FLC	ALR H2O2 inh
1	.	.
13	.	.
8	.	.
6	.	.
5	.	.
3	.	.
11	.	.
10	.	.
9	.	.
12	.	.
15	.	.
7	.	.

Next part.
cpd	smiles	T cruzi inh	RanGTP-Impb inh	Beta cell apopt
16	Cc1ccc(S(=O)(=O)NC(=O)COc2ccccc2C)cc1	.	.	-5
17	Cc1cc(Cl)ccc1OCC(=O)OCC(=O)Nc1ccc(F)c([N+](=O)[O-])c1	.	.	2
18	O=C(CSCCO)Nc1nccs1	.	.	-2
19	Oc1ccc(-c2nc3ccccn3c2NCc2ccc3c(c2)OCO3)cc1	.	.	-2
20	Cc1ccc(S(=O)(=O)CCc2nc3ccccc3s2)cc1	.	.	3
21	CC(C)C1=CC2=CCC3C(C)(C(=O)O)CCCC3(C)C2CC1 (configuration not stated) (tested in a mixture with another compound)	11	.	-4
22	Cc1ccc(/C(O)=C2/C(=O)C(=O)N(Cc3cccnc3)C2c2ccccn2)cc1 (configuration not stated)	1	1.6	-7
23	Cc1nc2sccn2c(=O)c1CCN1CCC(=C(c2ccccc2)c2ccc(F)cc2)CC1	33	-0.3	0
24	O=C(CCCC(=O)N(CC(=O)NC1CCCC1)Cc1ccc2c(c1)OCO2)Nc1ccccn1	-1	2.5	-8
25	COC(=O)[C@H](CCSC)NC(=O)Nc1cc(C)ccc1C	-15	0.5	-8
26	COc1cc(NC(=O)Nc2cccc(Cl)c2)c(OC)cc1NC(=O)CN1CCCCC1	32	1.9	8
27	Cc1c(O)c(=O)ccn1C	-12	-0.1	-2
28	Cn1nnnc1SCC1=C(C(=O)O)N2C(=O)[C@@H](NC(=O)[C@H](O)c3ccccc3)[C@H]2SC1	-9	-4.3	2
29	CO[C@H]1C=CO[C@@]2(C)Oc3c(C)c(O)c4c(O)c(c5c(c4c3C2=O)NC2(CCN(CC(C)C)CC2)N=5)=NC(=O)C(C)=CC=C[C@H](C)[C@H](O)[C@@H](C)[C@@H](O)[C@@H](C)[C@H](OC(C)=O)[C@@H]1C	22	0.0	4
30	Cn1ncc(C#N)c1/N=C/N1CCOCC1	1	-5.1	-14

cpd	Calb FLC	ALR H2O2 inh
16	.	.
17	.	.
18	-9	.
19	-17	.
20	3	.
21	1	.
22	.	.
23	.	.
24	.	.
25	.	.
26	.	.
27	.	.
28	.	.
29	.	.
30	.	.

cpd	smiles	T cruzi inh	RanGTP-Impb inh	Beta cell apopt
31	Cc1ccccc1C(=O)N1CCN(c2ccc(NC(=O)CSc3ccc(Cl)cc3)cc2)CC1	.	-3.6	9
32	COc1cccc(NC2C=CS(=O)(=O)C2)c1 (configuration not stated)	.	0.0	-3
33	Fc1cccc(NC(=S)NCCCN2CCOCC2)c1	.	2.5	-4
34	COc1ccccc1N1CCN(C(=O)C(C)N(c2ccc(C)c(C)c2)S(C)(=O)=O)CC1 (configuration not stated)	.	-0.7	0
35	O=C(N/N=C\c1ccccn1)C1COc2cc3ccccc3cc2O1 (configuration not stated)	.	-1.3	11
36	CCOC(=O)c1ccc(NC(=O)CNS(=O)(=O)c2ccccc2)cc1	.	-2.1	2
37	CCOc1ccc(C(=O)NC(=S)Nc2ccccn2)cc1[N+](=O)[O-]	.	2.5	-3
38	CCOC(=O)c1sc(NC(=O)c2cc(-c3ccccc3)nc3ccccc23)c(C#N)c1C	.	0.0	45
39	N#Cc1ccc(-c2csc(NNC(=O)c3ccccc3)n2)cc1	.	-0.7	79*
40	COc1ccc(N2C(=O)NC3CC2(C)Oc2ccc(Cl)cc23)cc1OC (configuration not stated)	.	1.8	-2
41	Cc1cccc(C(=O)NCC2CCCO2)c1 (configuration not stated)	.	6.9	5
42	Cc1ccc(C(=O)NCCSc2ccc(Cl)cc2)cc1[N+](=O)[O-]	.	-1.7	-4
43	Cc1ccc(CN2C(=O)CCSc3ccc(Cl)cc32)cc1	.	1.3	-1
44	C=CCOC(=O)Nc1c(C(=O)OC)[nH]c2ccccc12	.	.	.
45	COc1ccccc1-n1c(CNC(=O)c2ccco2)nnc1SCC(=O)Nc1cc(C)ccc1C	.	.	.

cpd	Calb FLC	ALR H2O2 inh
31	-10	.
32	-2	.
33	-17	.
34	0	.
35	15	.
36	-6	.
37	-6	.
38	3	.
39	7	.
40	0	.
41	-8	.
42	-26	.
43	13	.
44	.	21
45	.	-6

cpd	smiles	T cruzi inh	RanGTP-Impb inh	Beta cell apopt
46	CCC(Oc1ccccc1)C(=O)Nc1nnc(C(F)(F)F)s1 (configuration not stated)	.	.	.
47	CCc1c(C)c(C#N)c2nc3ccccc3n2c1N(C)C	.	.	.
48	COc1ccc(CN(Cc2cc3cc(OC)c(OC)cc3[nH]c2=O)C(=O)NC2CCCCC2)cc1	.	.	.
49	CCc1cc2cc(C)ccc2nc1SCC(=O)N1CCN(C(=O)c2ccco2)CC1	.	.	.
50	CC(=O)c1ccc2c3c(cccc13)C(=O)N(c1c(C)nn(C)c1C)C2=O	.	.	.
51	Cc1cc2c(=O)n(CC(=O)N3CCN(c4ccccc4)CC3)cnc2s1	.	.	.
52	CCOC(=O)CNC(=O)CN1CCCN(S(=O)(=O)c2ccc(Br)s2)CC1	.	.	.
53	O=c1oc2c3c4c(cc2c2c1CCC2)OCCN4CCC3	.	.	.
54	COc1ccccc1S(=O)(=O)Cc1ccc(C(=O)N2CCN(c3ccccn3)CC2)o1	.	.	.
55	CCOC(=O)N1CCN(c2cc(NCCC(=O)O)c3c4c(onc24)-c2ccccc2C3=O)CC1	.	.	.
56	COc1ccc(CCN(Cc2cccs2)S(=O)(=O)c2ccc(-n3cnnn3)cc2)cc1OC	.	.	.
57	Cc1cc(/C=C\c2ccc3cc(N(C)C)ccc3[n+]2C)c(C)n1-c1ccccc1	.	.	.
58	CCOc1ccc(CCNC(=O)Cn2c(-c3nonc3N)nc3ccccc32)cc1OCC	.	.	.
59	CCOC(=O)C1=C(CSc2nc(C)cc(C)c2C#N)OC(N)=C(C#N)C1c1cccs1 (configuration not stated)	.	.	.
60	Cc1ccc(C)c(-n2c(CNC(=O)c3ccco3)nnc2SCC(=O)Nc2nccs2)c1	.	.	.

cpd	Calb FLC	ALR H2O2 inh
46	.	-3
47	.	-19
48	.	4
49	.	-1
50	.	-17
51	.	9
52	.	-2
53	.	?
54	.	-17
55	.	?
56	.	-2
57	.	-8
58	.	-5
59	.	39
60	.	-2

cpd	smiles	T cruzi inh	RanGTP-Impb inh	Beta cell apopt
61	CC[N+](C)(CC)CCC[n+]1c(-c2ccccc2)c2cc(N)ccc2c2ccc(N)cc21	.	.	.
62	Cc1nc2cc(NC(=O)N(C)c3ccc4ccccc4c3)ccc2o1	.	.	.
63	CC1Cc2nc(SCC(=O)Nc3ccccc3F)n(C)c(=O)c2S1 (configuration not stated)	.	.	.
64	COc1ccc(C(NC(=O)c2ccco2)c2ccc(OC)c(OC)c2)cc1 (configuration not stated)	.	.	.
65	CCn1c(SCC(=O)N2CCOCC2)nc2c(c1=O)SC(C)C2 (configuration not stated)	.	.	.
66	COC(=O)c1cc2nc(-c3ccc(OC)cc3)cc(C(F)(F)F)n2n1	.	.	.
67	Cc1ccc(OCCNS(=O)(=O)c2ccc(N3CCCC3=O)cc2)cc1	.	.	.
68	CCOC(=O)c1ccc(N2C(=O)CC(N3CC(C)OC(C)C3)C2=O)cc1 (configuration not stated)	.	.	.
69	c1csc(CN2CCN(Cc3cccs3)C2c2cccs2)c1	.	.	.
70	Cc1ccc(-c2cc(C(F)(F)F)n3ncc(C(=O)N4CCN(C)CC4)c3n2)cc1	.	.	.
71	CC1CCCCN1C(=O)COc1ccc(NC(=O)c2ccco2)cc1 (configuration not stated)	-1	.	.
72	COc1ccc(C2CC(=O)c3cnc(NC(=O)c4cccc(OC)c4)nc3C2)cc1 (configuration not stated)	-5	.	.

cpd	Calb FLC	ALR H2O2 inh
61	.	91*
62	.	-9
63	11	70
64	3	-2
65	10	-7
66	17	0
67	10	-6
68	2	-6
69	-23	-5
70	-6	2
71	21	-13
72	7	-11
